VCAM-1 down – inhibitors of TNFa-induced VCAM-1 surface display, cell-based, plate reader, pooled HUVEC, TNFa stimulus (AID 454). 0.2% of 10,000 active. inhibition, % at 5 µM. HUVEC TNFa-induced VCAM-1 surface immunofluorescence, plate reader; numbers were filed only for top-ranked candidate wells;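 active means compound among top-ranked inhibitors of TNF-induced VCAM-1 adhesion protein staining, with the hit upheld by image or statistical review; inactive means the rest, including hits rejected on review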;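 further: 0% = TNFa with vehicle and 100% = cells without TNFa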
VCAM-1 imaging – inhibitors of TNFa-induced VCAM-1 surface display, imaging, high-content imaging, pooled HUVEC, TNFa stimulus (AID 456) | HUVEC TNFa-induced VCAM-1 surface expression, immunofluorescence imaging; numbers were filed only for top-ranked candidate wells | inhibition, % at 5 µM, or IC50 in µM where a hit was titrated | 0.2% of 10,000 active;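 active means top tenth filtered wells with inhibition above zero that passed visual or statistical confirmation; inactive means the rest, including hits rejected on review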;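 further: 0% = stimulated vehicle wells and 100% = unstimulated cells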
VCAM-1 augmentation – enhancers of VCAM-1 display on endothelial cells, imaging, high-content imaging, pooled HUVEC, TNFa stimulus (AID 457). Pooled HUVEC, TNFa-induced VCAM-1 immunofluorescence imaging; hits of this screen are not shown here. calls only. 0.2% of 10,000 active;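 active means a top-ranked rise in VCAM-1 staining upheld on image or statistical review; inactive means the rest, including candidates rejected on review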;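 further: compounds tested at 5 µM in the well; cells exposed to compound for 24 hours before fixing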
FPRL1 ligand – human FPRL1 ligands by binding competition, primary screen, cell-based, FPR counter-screen, flow cytometry; N-formyl peptide receptor 2 (Homo sapiens), P25090; FPRL1-expressing cells, fluorescent ligand binding inhibition; inhibition, %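 (tested at 6.7 µM)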; 0.3% of 24,000 active;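 further: 0% = buffer alone and 100% = receptor blocker peptide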
Target sequence (P25090 whole entry, looked up): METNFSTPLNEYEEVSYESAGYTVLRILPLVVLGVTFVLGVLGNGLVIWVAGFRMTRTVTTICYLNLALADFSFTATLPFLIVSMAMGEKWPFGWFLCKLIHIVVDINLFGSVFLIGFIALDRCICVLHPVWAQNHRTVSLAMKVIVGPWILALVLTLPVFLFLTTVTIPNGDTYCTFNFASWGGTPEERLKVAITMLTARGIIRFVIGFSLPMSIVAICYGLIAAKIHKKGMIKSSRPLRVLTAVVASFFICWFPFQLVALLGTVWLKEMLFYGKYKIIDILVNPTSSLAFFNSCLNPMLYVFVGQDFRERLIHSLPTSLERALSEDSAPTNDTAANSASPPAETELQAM
FPR binder – human FPR ligands by binding competition, primary screen, cell-based, FPRL1 counter-screen, flow cytometry | fMet-Leu-Phe receptor (Homo sapiens), P21462 | FPR-expressing cells, fluorescent ligand binding | inhibition, %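 (tested at 6.7 µM)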 | 0.74% of 24,000 active;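 further: 0% = buffer wells and 100% = receptor blocker peptide wells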
Target sequence (P21462 whole entry, looked up): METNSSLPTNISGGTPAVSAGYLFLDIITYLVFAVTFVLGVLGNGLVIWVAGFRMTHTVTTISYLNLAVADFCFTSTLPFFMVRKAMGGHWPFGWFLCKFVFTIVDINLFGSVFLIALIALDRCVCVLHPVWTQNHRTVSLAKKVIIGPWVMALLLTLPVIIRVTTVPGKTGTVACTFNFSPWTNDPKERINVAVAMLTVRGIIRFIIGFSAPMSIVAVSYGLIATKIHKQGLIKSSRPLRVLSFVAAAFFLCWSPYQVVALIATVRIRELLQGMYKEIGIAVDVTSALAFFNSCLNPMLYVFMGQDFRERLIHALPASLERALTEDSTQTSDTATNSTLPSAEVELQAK
* = called active by the depositor; i = inactive; . = no result given.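 How the source made its calls, unless noted: active means mean above 30%; inconclusive means self-fluorescent; inactive means the rest.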 Not all compounds are listed; count on the stated rates, not on these rows.

SMILES	VCAM-1 down	VCAM-1 imaging	VCAM-1 augmentation	FPRL1 ligand	FPR binder
COc1ccc(-n2nnc3c(=O)n(CC(=O)N4CCCC4)cnc32)cc1	.	.	.	-4	0
COc1ccc(CNC(=O)C2CSC(=O)C2)cc1 (stereo not drawn)	.	.	.	-10	-16
C/C=C/COC(=O)c1[nH]c2c(c1C)C(=O)CC(c1ccco1)C2 (stereo not drawn)	i	i	i	1	16
CCN(CC)CCN1C(=O)C(=O)/C(=C(/O)c2ccc(F)cc2)C1c1cccnc1 (stereo not drawn)	.	.	.	0	-4
CC(NC(=O)c1cccnc1)C(=O)N1CCCCC1 (stereo not drawn)	.	.	.	2	-3
CCCCn1c(NC(=O)c2ccc(F)cc2)c(C#N)c2nc3ccccc3nc21	.	.	.	-7	-26
Cc1ccc(CCNC(=O)CCNS(=O)(=O)c2ccc3c(c2)oc(=O)n3C)cc1	.	.	.	-12	-16
Cn1c(C(=O)NCCCN2CCCC2=O)cc2c(=O)n3ccccc3nc21	.	.	.	1	5
COCC(=O)NCc1nc2ccccc2[nH]1	.	.	.	-1	-5
CCOC(=O)N1CCC(NC(=O)c2cc(C(=O)Nc3ccc(OCC)cc3)ccc2CO)CC1	.	.	.	11	13
CN1c2ccccc2C(C)(C)C12CCCC(=O)N2 (stereo not drawn)	.	.	.	10	-5
O=C(Nc1ccc(Cl)cn1)Nc1cccs1	.	.	.	-4	-2
c1ccc(Cn2nnc3c(N4CCC5(CC4)OCCO5)ncnc32)cc1	i	i	i	1	0
CNC(=O)OC(C)CNS(=O)(=O)c1ccc(C)cc1 (stereo not drawn)	i	i	i	-2	1
CC1CCN(CCNC(=O)c2ccc(NC(=O)C3CCCO3)cc2)CC1 (stereo not drawn)	.	.	.	4	-4
O=C(CSc1nc2ccccc2o1)NC(=O)NCc1ccco1	i	i	i	-5	-7
C=CCN(CC=C)C(=O)CN1C(=O)c2ccccc2C1=O	i	i	i	14	13
O=C(O)CCc1ccc(-c2cccs2)o1	i	i	i	-9	1
O=C(NCc1ccc2c(c1)OCO2)C1CCC(CNS(=O)(=O)c2ccccc2)CC1 (stereo not drawn)	i	i	i	3	8
CC(NC(=O)c1ccc(F)cc1)C(c1cccs1)N1CCN(C)CC1 (stereo not drawn)	i	i	i	1	-1
O=C(NC1CCCCCC1)C1CCCN(S(=O)(=O)c2cnc[nH]2)C1 (stereo not drawn)	.	.	.	-4	-4
CCCn1c2c(c(O)c(C(=O)Nc3ccc(C)cn3)c1=O)CCCC2	i	i	i	-3	-10
COCCN1C(=O)C(O)=C(C(=O)c2ccco2)C1c1cccc(Oc2ccccc2)c1 (stereo not drawn)	.	.	.	-5	72*
O=C(Cc1c(C(=O)O)[nH]c2ccccc12)Nc1ccc2c(c1)OCO2	.	.	.	-7	0
C=CCSc1nnc(NC(=O)c2ccc(S(=O)(=O)NCC3CCCO3)cc2)s1 (stereo not drawn)	i	i	i	0	-9
CC(C)CCNc1cc(=O)n(C)c(=O)n1C	i	i	i	3	-8
CC(C)NC(=O)C1CC(=O)N(c2ccc(F)c(Cl)c2)C1 (stereo not drawn)	.	.	.	6	10
Cn1cnnc1SCC(=O)NCc1cccc(C(F)(F)F)c1	i	i	i	-5	0
CSc1nc2c(c(=O)[nH]1)C(c1ccncc1)C(C(=O)OC(C)C)=C(C)N2 (stereo not drawn)	.	.	.	1	4
CC(=O)c1cccc(NC(=O)CCOc2ccccc2)c1	i	i	i	2	-1
O=C(NCCN1CCOCC1)c1nn2c(c1Cl)NC(c1ccccc1)CC2C(F)(F)F (stereo not drawn)	.	.	.	2	2
COc1ccccc1NC(=O)C1=C(C)Nc2nnnn2C1c1cccc(C)c1 (stereo not drawn)	.	.	.	4	-2
Cn1c(=O)c2c(nc(-n3ccnc3)n2C)n(C)c1=O	i	i	i	3	11
CCN(CC)C(=O)CSc1nc2ccccc2c(=O)n1CCC(=O)NCc1ccc(F)cc1	i	i	i	4	8
O=C(CCCn1c(=O)[nH]c2cc(Cl)ccc2c1=O)NCC1CCCO1 (stereo not drawn)	.	.	.	2	1
CCOC(=O)c1[nH]c(=O)c2ccccc2c1O	i	i	i	9	-2
Cc1cc(N2CCN(c3ccccc3F)CC2)nc2cc(O)ccc12	.	.	.	-10	3
Cn1c(=O)c2c(nc(SCCCC#N)n2Cc2c(F)cccc2Cl)n(C)c1=O	i	73%*	i	0	-2
CCOC(=O)c1ccccc1NC(=O)CSc1nc2c(c(=O)n(C)c(=O)n2C)n1C	i	i	i	-8	0
O=C(NCCN1CCOCC1)c1ccc2c(c1)N(Cc1ccccc1)C(=O)CS2	i	i	i	4	-4
CCSc1oc(-c2cccs2)nc1S(=O)(=O)c1ccccc1	i	i	i	1	10
CCNc1nc(Oc2ccc(C(=O)OC)cc2)nc(N(C)C)n1	.	.	.	-5	0
CCc1c(O)nc(SCC(=O)Nc2ccc(OC)cc2)n(C2CCCCC2)c1=O	.	.	.	-1	23
Cn1c2c(c(=O)n(C)c1=O)C(c1ccccc1OC(F)F)C1=C(CCCC1=O)N2 (stereo not drawn)	.	.	.	4	-4
CC(=O)Nc1ccccc1Nc1cc(C#N)c(C#N)cc1[N+](=O)[O-]	.	.	.	-5	-32

Taken from above.
For FPRL1 ligand, CCSc1oc(-c2cccs2)nc1S(=O)(=O)c1ccccc1 is listed with 1
For FPRL1 ligand, Cn1c(=O)c2c(nc(SCCCC#N)n2Cc2c(F)cccc2Cl)n(C)c1=O is listed with 0

(list continues)
SMILES	VCAM-1 down	VCAM-1 imaging	VCAM-1 augmentation	FPRL1 ligand	FPR binder
CCc1nnc(NC(=O)c2ccc(S(=O)(=O)NCC(C)C)cc2)s1	i	i	i	-1	-3
COCCNC(=O)c1cc(-c2ccccc2OC)on1	.	.	.	-7	-2
Cc1ccc2oc(-c3ccccc3C(=O)O)cc(=O)c2c1	i	i	i	3	-1
O=C(Nc1nnc(C2CCCC2)s1)C1CCN(S(=O)(=O)c2ccc(Cl)cc2)CC1	i	i	i	-11	16
CCOc1ccccc1C(=O)NCC(=O)OCC(=O)N1C(C)CCCC1C (stereo not drawn)	i	i	i	10	6
COc1ccc(C2C(C(=O)NCCN3CCOCC3)c3ccccc3C(=O)N2C2CCCCC2)cc1 (stereo not drawn)	i	i	i	1	-1
CC1(C)COCN1S(=O)(=O)c1ccc(C(=O)Nc2nnc(-c3ccc(Cl)s3)o2)cc1	i	i	i	-6	6
O=c1cc(CO)oc(C(Nc2ccccn2)c2ccc(C(F)(F)F)cc2)c1O (stereo not drawn)	.	.	.	-4	8
CCN(C(=O)c1cc2cc3ccc(C)cc3nc2o1)c1ccc(OC)cc1	i	i	i	1	-4
COc1ccc(CCNC(=O)C2CCCN(Cc3nc(-c4cccc(Cl)c4)oc3C)C2)cc1OC (stereo not drawn)	.	.	.	-3	2
COC(=O)c1ccc(CSc2ncnc3ccccc23)o1	.	.	.	-3	-1
Cn1c(=O)[nH]c(=O)c2c1nc(N1CCNCC1)n2Cc1cccc2ccccc12	i	i	i	-4	-3
CSc1ccc(C2C(C#N)=C(N)N(c3ccccc3)C3=C2C(=O)CCC3)cc1 (stereo not drawn)	.	.	.	-1	3
COC(=O)c1sc2ccccc2c1N	.	.	.	-11	-14
CCCc1cc(=O)[nH]c(SCC(=O)N2CCN(S(=O)(=O)c3ccc(C)cc3)C2)n1	.	.	.	2	0
Cc1cccc(NC(=O)CC(C)(C)C)c1	i	i	i	-4	0
CCOC(=O)c1ccc2nc(NC(NC(C)=O)(C(=O)OC)C(F)(F)F)sc2c1 (stereo not drawn)	i	i	i	2	-6
Clc1ccc(-n2ncc3c(NCCCn4ccnc4)ncnc32)cc1	i	i	i	1	5
Clc1cc2c(c(Cn3cnc4ccccc43)c1)OCOC2	i	i	i	-2	2
Cc1oc(-c2ccc(Cl)cc2)nc1CN1CCCC(C(=O)N2CCc3ccccc32)C1 (stereo not drawn)	.	.	.	-3	3
COc1ccc(N2C(=O)C3CCCN3C2c2cccc(OC)c2)cc1 (stereo not drawn)	.	.	.	1	-1
CCOC(=O)C1CCN(C(=O)Nc2ccc(Cl)cc2Cl)CC1	i	i	i	6	1
COc1ccc(-n2nnc3c(=O)n(Cc4cccc(C)c4)cnc32)cc1	.	.	.	5	1
CCOC(=O)c1[nH]c(C)c(C(=O)NCc2ccc(C)cc2)c1C	.	.	.	-4	4
CCC(C)N(CCNC(=O)CC1Oc2ccc(C)cc2NC1=O)C1CCCCC1 (stereo not drawn)	.	.	.	0	-6
COC(=O)c1ccc(Oc2nc(C)cc(Oc3ccccc3)n2)cc1	.	.	.	-3	10
O=C(c1ccc(CNc2c(N3CCOCC3)c(=O)c2=O)cc1)N1CC=C(c2ccccc2)CC1	.	.	.	0	0
Cn1c(C(=O)N2CCCC(C(=O)NCCc3ccccc3)C2)cc2sccc21 (stereo not drawn)	.	.	.	-1	-1
CCNc1nc(Oc2ccc(=O)n(-c3ccccc3)n2)nc(N2CCOCC2)n1	.	.	.	5	0
Cc1ccc(Cn2ccc(NC(=O)c3cc(-c4ccc(F)cc4)on3)n2)cc1	.	.	.	2	-5

Next section; the last 2 above are carried over.
SMILES	VCAM-1 down	VCAM-1 imaging	VCAM-1 augmentation	FPRL1 ligand	FPR binder
CCNc1nc(Oc2ccc(=O)n(-c3ccccc3)n2)nc(N2CCOCC2)n1	.	.	.	5	0
Cc1ccc(Cn2ccc(NC(=O)c3cc(-c4ccc(F)cc4)on3)n2)cc1	.	.	.	2	-5
Cc1noc(C)c1S(=O)(=O)Nc1c(C)n(C)n(-c2ccccc2)c1=O	i	i	i	0	4
COc1ccc(C(=O)N(CN2CCCC2=O)c2nccs2)cc1OC	.	.	.	-3	-7
O=C(c1cc(-c2cccc(O)c2)on1)N1CCOCC1	.	.	.	2	9
Cc1ccc(C(CC(=O)O)Nc2nc(N3CCCCC3)nc(N3CCCCC3)n2)cc1 (stereo not drawn)	.	.	.	-3	6
COc1ccccc1N1CCN(c2nc3ccccc3n3nnnc23)CC1	.	.	.	-4	-15
Cn1c(Cn2c(=O)sc3ccccc32)nnc1SCC(=O)Nc1ccccc1	.	.	.	1	-2
CC(=O)N1c2c(cc(Br)cc2S(=O)(=O)NCc2cccnc2)CC1C (stereo not drawn)	.	.	.	-30	-13
CCn1c(=O)cc(OCC(=O)Nc2cccnc2)c2ccccc21	.	.	.	-3	-4
COCCCNC(=O)CSc1ccc(Cl)cc1	i	i	i	6	1
CC(=O)Nc1ccc(S(=O)(=O)N2CCN(CCC#N)CC2)cc1	.	.	.	1	0
CC(C)c1cc(Nc2cccc(O)c2)cc(C(C)C)c1O	.	.	.	7	10
Clc1ccc(C2=Nn3c(nnc3-c3n[nH]c4c3CCC4)SC2)cc1Cl	106*	i	i	1	3
COCCOC(=O)c1[nH]c2c(c1C)C(=O)CC(c1ccc(F)cc1)C2 (stereo not drawn)	.	.	.	-1	4

Gathered by group, those above containing an aryl thioether with sulfur outside any ring.
SMILES	VCAM-1 down	VCAM-1 imaging	VCAM-1 augmentation	FPRL1 ligand	FPR binder
O=C(CSc1nc2ccccc2o1)NC(=O)NCc1ccco1	i	i	i	-5	-7
C=CCSc1nnc(NC(=O)c2ccc(S(=O)(=O)NCC3CCCO3)cc2)s1 (stereo not drawn)	i	i	i	0	-9
Cn1cnnc1SCC(=O)NCc1cccc(C(F)(F)F)c1	i	i	i	-5	0
CSc1nc2c(c(=O)[nH]1)C(c1ccncc1)C(C(=O)OC(C)C)=C(C)N2 (stereo not drawn)	.	.	.	1	4
CCN(CC)C(=O)CSc1nc2ccccc2c(=O)n1CCC(=O)NCc1ccc(F)cc1	i	i	i	4	8
Cn1c(=O)c2c(nc(SCCCC#N)n2Cc2c(F)cccc2Cl)n(C)c1=O	i	73%*	i	0	-2
CCOC(=O)c1ccccc1NC(=O)CSc1nc2c(c(=O)n(C)c(=O)n2C)n1C	i	i	i	-8	0
CCSc1oc(-c2cccs2)nc1S(=O)(=O)c1ccccc1	i	i	i	1	10
CCc1c(O)nc(SCC(=O)Nc2ccc(OC)cc2)n(C2CCCCC2)c1=O	.	.	.	-1	23
COC(=O)c1ccc(CSc2ncnc3ccccc23)o1	.	.	.	-3	-1
CSc1ccc(C2C(C#N)=C(N)N(c3ccccc3)C3=C2C(=O)CCC3)cc1 (stereo not drawn)	.	.	.	-1	3
CCCc1cc(=O)[nH]c(SCC(=O)N2CCN(S(=O)(=O)c3ccc(C)cc3)C2)n1	.	.	.	2	0
Cn1c(Cn2c(=O)sc3ccccc32)nnc1SCC(=O)Nc1ccccc1	.	.	.	1	-2
COCCCNC(=O)CSc1ccc(Cl)cc1	i	i	i	6	1
